Calb FLC – C. albicans growth inhibition with fluconazole, primary screen, CaCi-2 strain, Alamar Blue fluorescence | growth inhibition, % (test concentration not listed) | 300,000 compounds, 0.57% hits | C. albicans CaCi-2 (fluconazole-resistant clinical isolate) + fluconazole, 48 h;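 active = most replicates above 75%; inconclusive = exactly half above 75%; inactive = most below 75%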;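 note: all wells also contain fluconazole at 8 µg/ml as a sub-toxic cotreatment; 0% = median of DMSO wells and 100% = median of geldanamycin control wells; wells of about 8 µL received 7.5 nL stock; the first replicate is given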
MLL AF4-AF9 inh – inhibitors of AF4 peptide binding to AF9, primary screen, biochemical, AlphaScreen, biotin-AF4 peptide, FLAG-AF9, single point | Protein AF-9 (Homo sapiens), P42568 | inhibition, % at 10 µM | 350,000 compounds, 0.47% hits | AID 651704, 2012;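 active = every replicate reaching a set inhibition limit, whatever the replicate mean, cut at about 25% in these data; inconclusive = mean inhibition reaches that limit but some replicates miss it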;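 note: 0% = plate neutral control median and 100% = total signal loss; the record names both 10 and 1 µM as test concentration; the first replicate is given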
Vif TR-FRET – inhibitors of Vif binding to APOBEC3G peptide, primary screen, biochemical, TR-FRET, GST-Vif 1-94, biotin-A3G peptide, dose response retest (AID 1117319) | TR-FRET GST-Vif / biotin-A3G peptide binding; higher % means a stronger effect; test concentration not given here; strong numbers were not always called active | Virion infectivity factor (Human immunodeficiency virus type 1 group M subtype B (isolate … | 260,000 compounds, 0.57% hits | one-dose inhibition, %; IC50 in µM for titrated hits;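 active = above the screen mean plus three standard deviations and confirmed in dose response; inconclusive = results disagree or hit not tested in dose response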;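 note: Vif residues 1-94 fused to GST binding biotinylated APOBEC3G peptide 110-148; 0% = full assay without inhibitor and 100% = GST in place of GST-Vif; retest series ran down from 100 µM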
RanGTP-Impb inh – inhibitors of RanGTP-importin-beta interaction, primary screen, biochemical, FRET, CFP-Ran, YFP-importin-beta, homogeneous; Ran GTPase (GTP-bound) - importin-beta complex; cell-free CFP-Ran/YFP-importin-beta FRET ratio; inhibition, % (concentration not given with the values); 300,000 compounds, 1.1% hits; AID 2216, 2009;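 active = most replicates above 15%; inconclusive = exactly half above 15%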;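 note: 0% = DMSO wells and 100% = Ran loaded with GDP instead of GTP; wells of about 40 µL received 100 nL stock; the first replicate is given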
A1 inh – caspase 3/7 activation in MEF A1-2A-BIM cells, primary screen, A1 inhibitor project, cell-based, luminescence, HTS; Caspase-Glo 3/7 luminescence, 3 h; percent of clofoctol response, vehicle zero; caspase activation, % (test concentration not listed); 330,000 compounds, 0.066% hits; AID 2462, 2010;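 active = over half of replicate activation scores above 10%, or exactly half above 10 with the replicate mean above 10; inconclusive = replicate mean below 10 yet half the replicates above 10; inactive = over half of replicates below 10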;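 note: wells of about 30 µL received 50 nL stock; many hits fall short of the cut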
Beta cell apopt – inhibitors of cytokine-induced beta cell apoptosis, primary screen, luminescence | INS-1E cytokine-induced death, ATP luminescence, 48 h; percent of positive-control rescue, neutral wells zero | protection from apoptosis, % (concentration not given with the values) | 300,000 compounds, 0.8% hits;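 active = all replicates at 75% or more, or half of them and the mean; inconclusive = half reach 75% but not the mean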;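 note: 0% = cytokine-treated negative control wells and 100% = positive control rescue; higher means more ATP so stronger rescue from cytokine killing; wells of about 40 µL received 100 nL stock; the first replicate is given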
LANA-H2A inh – blockers of LANA interaction with H2A/H2B – biochemical, FP readout, HTS, primary screen; 320,000 compounds, 0.6% hits; cell-free LANA-H2A/H2B peptide, fluorescence polarization; inhibition, % (no concentration beside the values); in the data active = inhibition mostly above about 10%, no sharp cut-off; inactive = mostly below about 6.7%;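 note: stock transfer was 7.5 nL into about 10 µL; 0% = median of vehicle wells and 100% = median of positive control wells; one replicate is shown; the record names a cut of 25% in any replicate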
Target sequence (Q9QR71 whole entry, looked up): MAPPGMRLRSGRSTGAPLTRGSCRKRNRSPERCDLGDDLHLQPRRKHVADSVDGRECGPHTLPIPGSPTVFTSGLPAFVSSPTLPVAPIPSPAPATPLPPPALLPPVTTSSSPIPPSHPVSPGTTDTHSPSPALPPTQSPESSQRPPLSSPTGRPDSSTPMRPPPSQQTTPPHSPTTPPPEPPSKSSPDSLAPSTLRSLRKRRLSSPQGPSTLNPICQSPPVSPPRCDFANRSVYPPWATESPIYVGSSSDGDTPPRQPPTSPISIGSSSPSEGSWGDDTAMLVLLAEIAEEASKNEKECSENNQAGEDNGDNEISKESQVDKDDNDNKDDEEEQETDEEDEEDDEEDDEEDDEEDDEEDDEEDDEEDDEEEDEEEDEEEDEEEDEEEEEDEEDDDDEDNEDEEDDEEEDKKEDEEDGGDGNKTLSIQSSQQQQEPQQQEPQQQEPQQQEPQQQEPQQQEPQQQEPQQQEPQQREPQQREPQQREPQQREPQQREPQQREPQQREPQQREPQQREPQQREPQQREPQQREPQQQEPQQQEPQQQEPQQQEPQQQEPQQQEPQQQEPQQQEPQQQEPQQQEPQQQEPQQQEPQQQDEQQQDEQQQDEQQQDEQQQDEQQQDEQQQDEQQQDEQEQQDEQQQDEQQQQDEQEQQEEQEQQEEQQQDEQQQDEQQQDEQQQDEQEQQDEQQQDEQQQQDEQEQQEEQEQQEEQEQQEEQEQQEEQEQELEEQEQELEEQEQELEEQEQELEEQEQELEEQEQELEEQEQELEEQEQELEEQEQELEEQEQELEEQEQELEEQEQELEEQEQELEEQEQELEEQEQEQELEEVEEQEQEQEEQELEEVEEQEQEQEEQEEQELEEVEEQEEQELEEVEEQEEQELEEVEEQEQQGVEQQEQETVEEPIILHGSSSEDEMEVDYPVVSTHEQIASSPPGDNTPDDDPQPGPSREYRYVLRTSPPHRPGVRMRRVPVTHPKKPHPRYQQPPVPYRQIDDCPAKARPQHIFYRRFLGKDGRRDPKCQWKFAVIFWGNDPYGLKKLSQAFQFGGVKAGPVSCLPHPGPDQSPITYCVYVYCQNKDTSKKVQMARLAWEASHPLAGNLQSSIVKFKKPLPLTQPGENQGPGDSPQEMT
T cruzi repl – inhibitors of intracellular T. cruzi growth, primary screen, luminescence, NIH3T3 host cells; T. cruzi beta-gal in NIH3T3, 90 h; inhibition, % (concentration not given with the values); 300,000 compounds, 1.4% hits;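 active = mean inhibition across valid replicates above about 55%, limit read from the data; inconclusive = mean below that limit but half or more replicates reach it; inactive = mean below it, under half of replicates reach it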;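 note: signal also drops with host cell toxicity which is not excluded here; 0% = plate median of DMSO wells and 100% = zero luminescence signal; higher percent means less beta-gal luminescence so fewer parasites; stock transfer was 50 nL into about 50 µL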
Numbers without * were called inactive; ? = inconclusive; nt = no result given. Compounds were not picked by outcome, and some 4.3% of all compounds hit somewhere here.

SMILES	Calb FLC	MLL AF4-AF9 inh	Vif TR-FRET	RanGTP-Impb inh	A1 inh	Beta cell apopt	LANA-H2A inh	T cruzi repl
COc1ccc(C/C(C)=N\NC(=O)c2c[nH]c3ccccc23)cc1OC	-3	1.9	1%	-2.3	0.2	-3	0.6	-1
COc1ccc(C2/C(=C(\O)c3ccc4c(c3)OCCO4)C(=O)C(=O)N2Cc2ccco2)c(OC)c1 (stereo not drawn)	11	nt	0%	-6.4	0.5	nt	-2.5	-15
CC(c1ccccc1)N1C(=O)C2C3C=CC(C4CC34)C2C1=O (stereo not drawn)	-7	-4.1	7%	0.9	0.6	-1	2.7	-1
N#CC1=C(N)NC(=S)C(C(N)=O)C1c1ccc([N+](=O)[O-])cc1 (stereo not drawn)	-19	-2.8	13%	-1.5	-1.8	-1	0.0	11
O=C(COC(=O)c1cc(S(=O)(=O)N2CCOCC2)ccc1F)Nc1cc([N+](=O)[O-])ccc1F	nt	2.4	1%	nt	0.6	-7	-1.9	nt
Cc1cccc(NC(=O)CSCC(=O)N2CCN(C(=O)c3ccco3)CC2)c1	nt	0.9	2%	nt	0.4	-2	-2.1	nt
Cc1nc(Cl)c(N=Cc2cccc([N+](=O)[O-])c2)c(Cl)n1	-3	0.2	nt	6.4	0.0	-7	5.7	-5
COc1ccc(NC(=S)N2CCC(NC(=O)c3ccco3)CC2)cc1	-4	0.9	nt	3.2	-0.6	-5	-5.4	-14
CCCCN(C(=O)CSc1nnc(-c2ccc(OC)cc2)n1CC)c1c(N)n(Cc2ccccc2)c(=O)[nH]c1=O	3	nt	nt	nt	0.3	-9	4.5	-8
CC(=O)Nc1ccc(S(=O)(=O)N(Cc2cccnc2)Cc2cc3ccccc3[nH]c2=O)cc1	4	-0.3	nt	?	0.0	-1	3.7	5
Cc1csc(NC(=O)C2CCCN(S(=O)(=O)c3cnc[nH]3)C2)n1 (stereo not drawn)	-7	-105	9%	-0.5	0.5	-6	-0.5	3
CC(C)C(NC(=O)CNC(=O)OC(C)(C)C)C(=O)NCc1ccccc1 (stereo not drawn)	-22	nt	12%	2.4	-0.7	-2	-0.6	-3
CC(C)(C)C(=O)Nc1cccc(-c2nc3ccccc3c(=O)o2)c1	-4	-48	3%	-0.3	-2.3	-1	2.2	-3
O=C(Nc1ccc(F)cc1)C(NC1CCCCC1)c1ccccc1 (stereo not drawn)	-18	-2.0	-6%	4.7	-0.3	1	-3.3	10
CCn1c(SCC(=O)N/N=C/c2ccc(C)s2)nc2ccccc21	4	nt	-2%	4.1	0.4	8	-5.2	-14
Cc1ccc(C(=O)N/C(=C/c2ccco2)C(=O)OCN2C(=O)c3ccccc3C2=O)cc1	17	nt	25%	-3.0	0.0	-4	9.6	-25
CNC(=O)c1[nH]cnc1C(=O)Nc1cccc(C)c1	nt	3.5	nt	nt	-0.8	-2	0.7	nt
CCc1nnc(NC(=O)CSc2nnc(Cc3ccc(OC)cc3)o2)s1	-17	nt	?	2.8	-0.2	1	-0.4	15
CCCCOc1cccc(C(=O)Nc2ccc(NC(=O)c3cccs3)cc2)c1	29	-0.6	nt	-0.6	0.7	5	2.1	-1
C[C@]12CC[C@@H]3c4ccc(O)cc4C(=O)C[C@H]3[C@@H]1CC[C@@H]2O	nt	4.7	8%	1.9	0.1	1	3.5*	-8
CCNC(=S)N(Cc1ccco1)Cc1cc2cc3c(cc2[nH]c1=O)OCCO3	-11	nt	nt	0.2	0.7	-5	-2.1	0
O=C(Nc1nccs1)c1ccc2c(=O)n3c(nc2c1)CCCCC3	1	nt	6%	6.2	-2.1	5	-1.2	-3
CC1(C)CC(NC(=O)N2c3ccccc3Sc3ccccc32)CC(C)(C)N1	2	10	1%	-4.0	-0.6	4	-0.6	6
Cn1c(SCC(=O)N2CCOCC2)nnc1-c1cccc(NC(=O)c2ccccc2)c1	-7	nt	-2%	-3.1	-0.4	-4	2.0	-6
Cc1ccc(-c2nc3ccccc3s2)cc1NC(=S)NC(=O)c1ccccc1	1	nt	-14%	3.4	-1.0	-1	-0.2	7
CCOc1ccc(-n2c(-c3ccccc3)c[n+]3c2CCC3)cc1	-16	-1.1	13%	-0.4	0.0	104*	3.9	62*
Cc1cc(C)cc(NC(=O)COC(=O)CN=C2NS(=O)(=O)c3ccccc32)c1	-8	-1.7	4%	-1.0	0.4	-1	-3.4	-13
CCCNNC(=O)C(O)(c1ccccc1)c1ccccc1	-15	nt	1%	-3.8	2.1	-11	1.2	-10
COc1cccc(N2CCN(c3ccc4nnc(CCC(=O)Nc5ncccc5C)n4n3)CC2)c1	12	-0.6	4%	1.5	0.7	-8	0.2	-5
Cc1ccc(S(=O)(=O)Nc2ccc3c(c2)CC(=O)N([C@H](C)CO)C[C@@H](C)[C@H](CN(C)S(=O)(=O)c2ccccc2)O3)cc1	nt	-4.5	nt	nt	0.1	5	-0.1	nt
CN1CCN(C(=O)/C(=C\c2ccccc2)c2ccccc2)CC1	-5	nt	1%	6.1	0.4	2	-0.1	1
NCCCC[C@H]1CN=C(N)N1CCCCC1CCCCC1	-23	nt	nt	1.3	0.0	-5	-2.2	-13
NNc1nc(NCc2ccccc2)nc(N2CCOCC2)n1	9	nt	6%	-3.6	1.4	-6	6.4	6
Clc1cc(Br)ccc1OCCCn1ccnc1	-89	2.5	?	1.0	0.1	-2	2.1	47
NC(=O)CCN1CCN(Cc2nc(C(c3ccccc3)c3ccccc3)no2)CC1	11	0.4	3%	-1.7	0.4	-6	-1.4	5
Cc1ccc(Cn2cc(S(=O)(=O)c3ccc(C(C)C)cc3)c(=O)c3cc4c(cc32)OCO4)cc1	3	nt	nt	-0.3	-0.1	-3	-0.4	37
CCn1c(CC(=O)Nc2ccccc2F)nnc1SCC(=O)NC1CCCCC1	14	1.1	nt	1.5	0.5	-1	7.1	3
Cc1ccccc1OCCOc1cccc(/C=N/NC(=O)Cc2nnc(N)s2)c1	13	nt	18%	2.2	0.8	-2	-1.3	9
CC(C)COC(=O)Cc1c(O)c2ccccc2[nH]c1=O	-10	nt	20%	2.2	0.1	nt	-3.9	-5
C=CCOc1ccc(-c2n[nH]c(=S)o2)cc1	-2	0.4	-5%	nt	-0.5	-5	-8.5	nt
CCc1c(C)sc(NC(=O)c2cc(C)on2)c1C#N	33	nt	26%	0.0	-0.5	15	5.7	-6
CCOP(=O)(OCC)c1nc(-c2ccccc2)oc1N1CCCCC1	9	0.5	-2%	-1.7	-0.2	-2	6.7	-5
O=C(Nc1ccc([N+](=O)[O-])cc1)C(Cc1ccccc1)N1C(=O)c2cccc3cccc(c23)C1=O (stereo not drawn)	16	1.2	4%	1.4	5.5*	nt	3.3	18
O=C(Nc1cccc(C(=O)O)c1)Nc1ccccc1Cl	-4	-0.6	?	5.5	-0.2	nt	-4.5	-21
O=C(/C=C/N1CCOCC1)c1coc2ccccc12	-3	nt	18%	6.2	-5.0	0	0.4	-5
CCOc1ccc(S(=O)(=O)Nc2cc(C)ccn2)c2ccccc12	8	nt	2%	0.2	-0.1	-10	1.0	-3
O=C(COC(=O)c1cccc(Cl)c1)NCc1ccccc1	nt	-0.9	-8%	nt	-0.4	0	3.3	nt
COc1cccc(CNS(=O)(=O)c2ccc3c(c2)C(C)(C)C(=O)N3C)c1	-5	nt	5%	1.4	0.7	-6	-0.3	-28
O=C(CN(Cc1ccccc1)S(=O)(=O)c1ccc(Br)cc1)NCC1CCCO1 (stereo not drawn)	-4	-0.8	nt	1.3	0.7	-2	2.5	13
c1ccc(-c2cc3c(-n4cccc4)ncnc3o2)cc1	-17	nt	?	-1.0	-0.1	-11	-1.0	3
CC(=O)Nc1ccc(S(=O)(=O)N(C)CC(=O)OCC(=O)c2ccc3c(c2)NC(=O)CO3)cc1	nt	-0.3	5%	nt	0.4	-3	nt	nt
Cc1ccc(NC(=O)c2ccco2)cc1NC(=O)CSc1nnc(-c2cccs2)n1C	3	nt	4%	-0.1	-0.4	-3	1.2	-24
Cc1ccc(CNS(=O)(=O)c2ccc3c(c2)OCCO3)cc1	-2	-45	-2%	-0.4	-1.3	2	1.1	-8
O=C(COC(=O)c1c[nH]c2ccccc12)NC1CCCCC1	nt	0.8	nt	nt	0.4	-2	1.1	nt
CCn1c(=O)c([N+](=O)[O-])c(NCCCn2ccnc2)c2ccccc21	8	-1.3	3%	-1.3	1.1	-1	-3.2	-15
COc1ccc(C2CC(c3ccccc3)=NN2C(=O)COC(=O)c2cc(S(=O)(=O)N3CCOCC3)ccc2F)cc1 (stereo not drawn)	1	4.2	nt	2.5	0.1	1	4.2	17
O=C(COc1ccccc1)Nn1c(-c2ccccc2)nc2ccccc2c1=O	-37	-5.1	nt	0.8	-0.2	-10	2.5	-5
CC(C)(C)c1ccc(OCC(O)CN(CCO)CC(O)Cn2ccc3ccccc32)cc1 (stereo not drawn)	-22	0.0	nt	3.2	-0.4	5	-2.0	21
CCCCCn1c(=NC(=O)c2cccnc2)c(C#N)cc2c(=O)n3cccc(C)c3nc21	-4	-1.7	nt	144*	-0.1	14	-0.9	23
O=C1C(Cl)=C(NCCCN2CCOCC2)C(=O)N1CCc1ccccc1	-10	nt	?	5.3	0.0	3	1.5	8
Next entries
SMILES	Calb FLC	MLL AF4-AF9 inh	Vif TR-FRET	RanGTP-Impb inh	A1 inh	Beta cell apopt	LANA-H2A inh	T cruzi repl
Cc1ccc(S(=O)(=O)N2CCN(C(=O)COC(=O)c3ccc(Cl)nc3)CC2)c(C)c1	nt	-13	2%	nt	-0.8	1	2.4	nt
CCN(CC)c1ccc(/C=N/n2c(C)cc(C)cc2=O)cc1	-2	nt	1.6µM*	1.8	nt	4	7.7	-1
Cc1ccc(NC(=O)c2cc3c(s2)CCC3)cc1S(=O)(=O)N1CCOCC1	-3	nt	?	3.4	0.0	22	0.9	22
CCc1ccccc1NC(=O)c1ccc(S(=O)(=O)N2CCCC2)cc1	3	0.6	nt	2.5	0.6	2	-2.4	-9
O=C(N/N=C/c1ccccn1)c1cc(Br)ccc1O	5	0.5	7%	2.4	-3.9	14	-1.3	-7
NC(=O)CSc1nc(-c2ccccc2)nc2ccccc12	-4	0.6	-7%	3.5	-0.3	2	3.6	-9
CCOC(=O)C1CCN(S(=O)(=O)c2ccc3c(c2)CCN3C(C)=O)CC1	-7	2.5	-5%	0.4	-0.4	nt	-2.9	-8
CC1=NN(C(=O)c2csc(C)c2C)C(O)(C(F)(F)F)C1 (stereo not drawn)	-1	2.0	?	2.2	1.0	-7	-4.5	-9
c1cncc(CSc2nnc(-c3cccnc3)n2Cc2ccco2)c1	7	nt	?	-0.1	nt	nt	nt	-3
c1ccc(-c2cnnc(SCc3cn4cccnc4n3)n2)cc1	9	nt	-3%	-0.2	1.7	0	-6.8	-5
CCc1ccc(Nc2ncc3c(n2)CC(C)CC3=O)cc1 (stereo not drawn)	32	2.1	-4%	-0.6	-4.9	-3	1.4	-4
